# Screening results as filed in PubChem.
# PAFAH2 FP inh: inhibitors of human PAFAH2; recombinant PAFAH2, FP-rhodamine activity probe, fluorescence polarization; hit rate 0.99% among 340,000; inhibition, % at 3.39 µM; Q99487;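 active means inhibition above the mean over all tested compounds plus 3 SD, cut at about 30% in these data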;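 further: inhibitors block probe labeling of enzyme so polarization drops; 0% = enzyme with DMSO and 100% = wells lacking PAFAH2 protein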
# Fam108B inh: counter-screen for RBBP9 inhibitors: inhibitors of mouse Fam108B. recombinant Fam108B, FP-Rh probe fluorescence polarization. inhibition, % at 9.51 µM. hit rate 0.33% among 300,000. AID 1947;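 active means inhibition above the screen mean inhibition plus 3 SD, computed separately per campaign, cut at about 18% in these data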;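 further: inhibitors lower polarization as less probe binds the enzyme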
# PAD4 FP inh: PAD4 (human) enzyme inhibition; AID 485272; hit rate 0.41% among 330,000; recombinant PAD4, RCA probe fluorescence polarization; inhibition, % at 6.36 µM; Q9UM07;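 active means percent inhibition above a cutoff equal to the mean of all tested compounds plus 3 SD, cut at about 15% in these data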;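 further: 0% = PAD4 with RCA probe and DMSO and 100% = probe without PAD4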
# LYPLA1 inh: blocks human lysophospholipase 1, a PME1 counter-screen. recombinant LYPLA1, FP-Rh probe fluorescence polarization. inhibition, % at 5.9 µM. hit rate 0.16% among 320,000. AID 2174;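 active means inhibition above the mean of all tested compounds plus 3 SD, set per campaign, cut at about 14% in these data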;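 further: inhibitors block serine hydrolase probe labeling of LYPLA1 so polarization falls; 0% = enzyme with DMSO and 100% = wells lacking LYPLA1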
# PAFAH1B3 FP inh: inhibitors of human PAFAH1B3; Q15102; recombinant PAFAH1B3, FP-rhodamine probe, fluorescence polarization; inhibition, % at 3.39 µM; hit rate 0.28% among 340,000;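 active means inhibition above the screen-wide average of all tested compounds plus 3 SD, cut at about 25% in these data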;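 further: 0% = enzyme with DMSO only and 100% = wells lacking PAFAH1B3 protein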
# Target sequence (Q15102 whole entry, looked up): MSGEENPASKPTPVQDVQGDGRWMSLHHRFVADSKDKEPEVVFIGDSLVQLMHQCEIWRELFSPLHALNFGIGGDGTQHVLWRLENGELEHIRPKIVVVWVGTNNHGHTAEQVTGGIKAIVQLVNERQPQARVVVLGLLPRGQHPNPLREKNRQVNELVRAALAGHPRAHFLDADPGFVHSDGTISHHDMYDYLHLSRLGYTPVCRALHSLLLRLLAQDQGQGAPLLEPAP
# pPAFAH FP inh: inhibitors of human plasma PAF acetylhydrolase (pPAFAH) | Q13093 | recombinant pPAFAH, FP-rhodamine probe fluorescence polarization | inhibition, % at 3.39 µM | hit rate 1.5% among 330,000 | AID 463082;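 active means inhibition above the mean inhibition across the screen plus 3 SD, cut at about 25% in these data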;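 further: inhibitors block binding of the rhodamine activity-based probe so polarization drops; 0% = enzyme with DMSO and 100% = wells lacking pPAFAH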
# Target sequence (Q13093 whole entry, looked up): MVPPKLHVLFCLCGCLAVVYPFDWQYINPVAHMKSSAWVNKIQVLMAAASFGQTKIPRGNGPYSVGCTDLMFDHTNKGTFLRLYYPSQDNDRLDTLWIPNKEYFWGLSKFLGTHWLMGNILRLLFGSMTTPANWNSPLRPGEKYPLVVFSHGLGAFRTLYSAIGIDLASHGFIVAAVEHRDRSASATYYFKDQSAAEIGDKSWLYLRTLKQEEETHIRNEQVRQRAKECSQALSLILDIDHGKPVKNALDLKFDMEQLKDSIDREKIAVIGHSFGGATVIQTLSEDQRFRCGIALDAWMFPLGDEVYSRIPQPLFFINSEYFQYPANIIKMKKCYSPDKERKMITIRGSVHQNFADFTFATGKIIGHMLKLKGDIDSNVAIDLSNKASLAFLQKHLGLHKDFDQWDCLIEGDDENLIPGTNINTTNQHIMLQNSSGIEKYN
# PME-1 inh: PME-1 (human) inhibition; Q9Y570; recombinant PME-1, FP-Rh probe fluorescence polarization; inhibition, % at 5.9 µM; hit rate 0.53% among 320,000; AID 2130;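 active means inhibition above the campaign mean of all compounds plus 3 SD, cut at about 26% in these data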;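 further: competitive labeling of PME-1 active site by serine hydrolase directed probe; 0% = PME-1 with DMSO and 100% = wells lacking PME-1 enzyme; inhibitors block probe labeling so polarization falls and inhibition rises; many of its hits are not listed in these tables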
# GSTO1 counter: blocks human GSTO1 in RBBP9 counter-screen; hit rate 1.1% among 300,000; AID 1974; P78417; recombinant GSTO1, activity-based probe fluorescence polarization; inhibition, % at 5.96 µM;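 active means inhibition above the campaign mean inhibition plus 3 SD, cut at about 35% in these data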;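 further: 0% = GSTO1-1 with DMSO and 100% = wells lacking GSTO1-1 enzyme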
# * marks the source's active call; other numbers are inactive results; / = no result given. A portion of the library. The share of hits here may be higher or lower than overall.
1	O=C(CC1C(=O)NCCN1C(=O)Nc1ccc(C(F)(F)F)cc1)Nc1ccc(F)cc1 (stereo not drawn)
2	Clc1ccc(CSc2nnc(-c3sccc3-n3cccc3)o2)cc1
3	Fc1ccc(Cn2nnnc2C(c2ccc(Cl)cc2)N2CCSCC2)cc1 (stereo not drawn)
4	COCCCNC(=S)NNC(=O)c1ccc(S(=O)(=O)N2CCC(C)CC2)cc1
5	Cc1ccc(CCNC(=O)c2nnc(CS(=O)(=O)c3ccccc3)o2)cc1
6	COc1ccc(C(c2nnnn2C2CCCC2)N2CCc3ccccc3C2)cc1OC (stereo not drawn)
7	CC1CCCN(c2c([N+](=O)[O-])cc(C(=O)O)cc2[N+](=O)[O-])C1 (stereo not drawn)
8	O=C(Nc1nccs1)C1(c2ccc(Cl)cc2)CC1

entry no.	1	2	3	4	5	6	7	8
GSTO1 counter	-2	4	-8	-10	3	/	-21	6
pPAFAH FP inh	-6	0	-2	2	4	/	3	5
Fam108B inh	-2	1	0	5	2	/	-2	2
LYPLA1 inh	-5	-5	-1	-1	-9	/	-2	1
PAFAH2 FP inh	8	-2	4	3	4	3	3	1
PAD4 FP inh	-1	-1	0	6	-5	/	-2	-3
PAFAH1B3 FP inh	3	1	-1	4	-3	5	1	5
PME-1 inh	3	-6	-3	4	-3	/	-9	-5

9	CC(OCC(O)CNCC1COc2ccccc2O1)c1ccc(Cl)cc1 (stereo not drawn)
10	COc1ccc(OC)c(S(=O)(=O)Nc2ccccc2SC)c1
11	Fc1ccc(Br)cc1C1C=C(c2cccnc2)Nc2ncnn21 (stereo not drawn)
12	Cc1ccc(SCCNS(=O)(=O)c2ccc(F)cc2)cc1
13	N#Cc1ccc(-c2cccnc2)nc1SCC(=O)Nc1sc2c(c1C#N)CCC2
14	N/C(=N\OC(=O)Cc1cccs1)c1cccc([N+](=O)[O-])c1
15	COc1cc(/C=C/C(=O)O)ccc1OS(=O)(=O)c1ccc(C)cc1
16	O=C(NCCSc1ccc(Br)cc1)c1ccccc1

entry no.	9	10	11	12	13	14	15	16
GSTO1 counter	5	5	-8	3	22	2	-5	-3
pPAFAH FP inh	2	1	-4	7	23	5	4	4
Fam108B inh	0	1	-4	-3	-4	1	-4	1
LYPLA1 inh	1	-4	-3	-4	-3	-3	1	2
PAFAH2 FP inh	-1	4	1	5	1	9	6	10
PAD4 FP inh	-1	-2	1	-4	-10	-3	3	-2
PAFAH1B3 FP inh	8	3	-4	0	10	7	10	1
PME-1 inh	0	1	-7	-5	-3	-7	-1	5

# Not a retest: entries from further up.
1	O=C(CC1C(=O)NCCN1C(=O)Nc1ccc(C(F)(F)F)cc1)Nc1ccc(F)cc1 (stereo not drawn)
2	Clc1ccc(CSc2nnc(-c3sccc3-n3cccc3)o2)cc1
3	Fc1ccc(Cn2nnnc2C(c2ccc(Cl)cc2)N2CCSCC2)cc1 (stereo not drawn)
4	COCCCNC(=S)NNC(=O)c1ccc(S(=O)(=O)N2CCC(C)CC2)cc1
5	Cc1ccc(CCNC(=O)c2nnc(CS(=O)(=O)c3ccccc3)o2)cc1
6	COc1ccc(C(c2nnnn2C2CCCC2)N2CCc3ccccc3C2)cc1OC (stereo not drawn)
7	CC1CCCN(c2c([N+](=O)[O-])cc(C(=O)O)cc2[N+](=O)[O-])C1 (stereo not drawn)
8	O=C(Nc1nccs1)C1(c2ccc(Cl)cc2)CC1
9	CC(OCC(O)CNCC1COc2ccccc2O1)c1ccc(Cl)cc1 (stereo not drawn)
10	COc1ccc(OC)c(S(=O)(=O)Nc2ccccc2SC)c1

entry no.	1	2	3	4	5	6	7	8	9	10
GSTO1 counter	-2	4	-8	-10	3	/	-21	6	5	5
pPAFAH FP inh	-6	0	-2	2	4	/	3	5	2	1
Fam108B inh	-2	1	0	5	2	/	-2	2	0	1
LYPLA1 inh	-5	-5	-1	-1	-9	/	-2	1	1	-4
PAFAH2 FP inh	8	-2	4	3	4	3	3	1	-1	4
PAD4 FP inh	-1	-1	0	6	-5	/	-2	-3	-1	-2
PAFAH1B3 FP inh	3	1	-1	4	-3	5	1	5	8	3
PME-1 inh	3	-6	-3	4	-3	/	-9	-5	0	1

11	Fc1ccc(Br)cc1C1C=C(c2cccnc2)Nc2ncnn21 (stereo not drawn)
12	Cc1ccc(SCCNS(=O)(=O)c2ccc(F)cc2)cc1
13	N#Cc1ccc(-c2cccnc2)nc1SCC(=O)Nc1sc2c(c1C#N)CCC2

entry no.	11	12	13
GSTO1 counter	-8	3	22
pPAFAH FP inh	-4	7	23
Fam108B inh	-4	-3	-4
LYPLA1 inh	-3	-4	-3
PAFAH2 FP inh	1	5	1
PAD4 FP inh	1	-4	-10
PAFAH1B3 FP inh	-4	0	10
PME-1 inh	-7	-5	-3

# (list continues)
17	CCN(Cc1ccccc1)c1ccc(/C=N/N2CCOCC2)cc1
18	O=C(CN1CCN(S(=O)(=O)c2ccc(Cl)cc2)CC1)NCc1cccs1
19	O=C(CSc1ccc(Cl)cc1)N1N=CCC1c1ccccc1 (stereo not drawn)
20	c1ccc(SCc2cn3cccnc3n2)nc1
21	Cc1cc(C)cc(N(C(=O)c2csnn2)C(C(=O)NC2CCCC2)c2ccccn2)c1 (stereo not drawn)
22	CC(C)Cn1c(-c2ccc(F)cc2)n[nH]c1=S
23	O=C(/C=C/c1ccccc1)NCCS(=O)(=O)N1CCN(c2ccc(F)cc2)CC1
24	Cc1ccc2nc(SCc3cn4cccnc4n3)[nH]c2c1

entry no.	17	18	19	20	21	22	23	24
GSTO1 counter	5	2	5	10	1	9	0	-3
pPAFAH FP inh	6	-1	2	-1	-1	3	1	6
Fam108B inh	9	3	0	3	-1	-1	1	-3
LYPLA1 inh	3	0	2	6	0	-4	-1	1
PAFAH2 FP inh	-1	3	3	5	-4	7	7	2
PAD4 FP inh	3	0	-3	-5	-5	-6	0	-1
PAFAH1B3 FP inh	-4	-1	5	4	2	8	10	-3
PME-1 inh	0	3	2	8	-2	-2	-4	-5

25	CC(C)(C)C(=O)NC(=S)NNC(=O)c1ccc(Cl)cc1Cl
26	O=C1CN(S(=O)(=O)c2ccc(Cl)cc2)CC(=O)N1CCc1ccccc1
27	CC1(C)CC2CC(C)(CN2S(=O)(=O)c2cccc(C(=O)O)c2)C1 (stereo not drawn)
28	Cc1ccc(CC(CC(=O)O)C(=O)NCC23CC4CC(CC(C4)C2)C3)cc1 (stereo not drawn)
29	Cc1ccc(S(=O)(=O)Oc2ccccc2/C=C2\SC(=O)NC2=O)cc1
30	O=C(O)Cn1c(CCS(=O)(=O)c2ccc(Br)cc2)nc2ccccc21
31	Cc1cnc(NC(=O)CSc2ccc(Cl)cc2)s1

entry no.	25	26	27	28	29	30	31
GSTO1 counter	-12	3	/	1	-48	-1	1
pPAFAH FP inh	5	0	3	1	-4	3	5
Fam108B inh	4	-4	/	-2	-1	5	2
LYPLA1 inh	1	-3	2	-1	-3	-2	-1
PAFAH2 FP inh	-1	0	4	16	10	4	-4
PAD4 FP inh	-3	-6	0	-5	0	0	-1
PAFAH1B3 FP inh	4	11	7	4	-1	1	-1
PME-1 inh	5	-7	-1	1	6	4	-1
